miR-21 FLuc = raises the signal of a miR-21 reporter; HeLa miR-21 FLuc reporter, luciferase, 48 h; Potency, µM (doses to about 38.3 µM), for the others: top-dose reporter change, positive = more light; 340,000 tested, under 10 active; active = well fitted rising curve with a large enough effect; inconclusive = small, poorly fitted or top-dose-only effect; inactive = no such curve, though single readings can be large or run the other way;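 also: % of control where 0% means no effect; miR-21 action dims this reporter so a rising signal means less miR-21 action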
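HeLa cells stably expressing CMV-driven firefly luciferase with a downstream miR-21 binding sequence, endogenously expressing miR-21, were treated with titrations (up to about 40uM final) for 48 hours at 37 degree Celsius. Luciferase luminescence was read after lysis.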
Numbers without * were called inactive; ? = inconclusive. Some of the compounds tested; count on the stated rates, not on these rows.

SMILES	miR-21 FLuc
CNS(=O)(=O)c1cn(CC(=O)N2CCN(c3ccccc3OC)CC2)cc1S(=O)(=O)NC	1.9%
Cc1ccc(CSc2nc3cc(C(=O)NC4CCCC4)ccc3c(=O)n2Cc2ccccc2)cc1	-0.1%
Cc1ccc(C)c(N2CCN(C(c3ccc(F)cc3)c3nnc(-c4ccccc4)o3)CC2)c1 (centres undefined)	0.1%
Cc1cccc(NC(=O)CSc2ncc3c(n2)-c2cc(Cl)ccc2N(C)S3(=O)=O)c1C	5.0%
COc1ccc2c(c1)sc1ncc(C(=O)NCc3ccccc3F)c(=O)n12	-5.0%
COc1ccc(CNC(=O)c2ccc3nc(CCc4ccccc4)oc3c2)cc1	-6.8%
Cc1ccc(C(=O)Nc2ccc(S(=O)(=O)N(Cc3ccccc3)c3ccccc3)cc2)cc1	9.5%
CC(Oc1ccccc1)C(=O)Nc1ccccc1C(=O)OCc1cc(=O)n2nc(C3CC3)sc2n1 (centres undefined)	-0.9%
O=c1cc(-c2ccccc2)n2c(SCc3cccc([N+](=O)[O-])c3)nnc2[nH]1	-1.6%
CC(=O)C1=C(O)C(=O)N(Cc2ccccc2)C1c1ccc([N+](=O)[O-])cc1 (centres undefined)	1.0%
COc1ccc(NC(=O)CSc2c3c(nc4ccc(Cl)cc24)CCCC3)cc1Cl	19.7%
CN1CCN(CCCNC(=O)Cn2c(-c3cccs3)cc3ccccc32)CC1	-0.6%
Cc1ccc(C)c(CN2C(=O)C3(c4ccccc42)N(c2cccc(C(F)(F)F)c2)C(=O)CS3(=O)=O)c1 (centres undefined)	-1.4%
CCOc1ccc(OCC)c(NS(=O)(=O)c2cc(-c3cnc(C)o3)ccc2OC)c1	-1.1%
COc1ccc(-c2nsc(NC(=O)c3cccc(OC)c3)n2)cc1	13.0%
CCN(CC)CCNC(=O)c1nn(-c2ccc(OC)c(Cl)c2)c(=O)c2c1c1ccccc1n2C	-4.5%
Cc1cc(OCC(=O)NC(Cc2c[nH]c3ccccc23)C(=O)O)ccc1Cl (centres undefined)	-9.8%
CCOc1ccc(/C=C/C(=O)Nc2ccc3nc(N(CC)CC)cc(C)c3c2)cc1OC	?
Cc1ccc(NC(=O)N2CCN(Cc3nc4ccc(C)cc4o3)CC2)c(Cl)c1	3.0%
CCOC(=O)c1c(-c2ccccc2)oc2ccc(NS(=O)(=O)c3ccccc3)cc12	-0.1%
COc1ccc(N(CC(=O)Nc2cc(OC)cc(OC)c2)S(=O)(=O)c2c(C)noc2C)cc1	4.7%
COc1cc(C(=O)Nc2ccc(NC(=O)c3ccc(C(C)(C)C)cc3)cc2)cc(OC)c1OC	21.0%
CCOc1ccc(-c2nonc2NC(=O)c2oc3ccc(C)cc3c2C)cc1OCC	-5.5%
CCOC(=O)c1nnn(C(CC)C(=O)Nc2ccc(F)cc2)c1C(=O)OCC (centres undefined)	2.0%
Cc1cc(Nc2cccc(Cl)c2)nc2ccc(NC(=O)c3ccc(F)cc3Cl)cc12	27.9%
Cc1nn(CC(=O)NCCc2ccc(Cl)cc2)c(=O)c2cc3cc(F)ccc3n12	-3.4%
CC1CCN(S(=O)(=O)c2ccc3nc(Nc4cccc(F)c4)ccc3c2)CC1	21.6%
Cc1cc(C)c(NC(=O)C(C)n2nnc3sc4c(c3c2=O)CCCC4)c(C)c1 (centres undefined)	8.8%
CCc1ccc(NC(=O)CN2C(=O)C(c3ccc(F)cc3)=NC2(C)C)cc1	-0.6%
Cc1ccc(C(=O)Nc2ccc(C(=O)O)cc2)cc1S(=O)(=O)Nc1ccccc1	-3.7%
Cc1ccc(Cl)cc1NC(=O)CN1C(=O)c2ccccc2Sc2ncccc21	-6.0%
CCOc1cc(C2C(C(N)=O)=C(C)Nc3ncnn32)cc(Br)c1O (centres undefined)	0.2%
CCOc1ccc(C2CC(=O)n3nc(-c4ccc(C)cc4)nc3S2)cc1 (centres undefined)	2.6%
CCOc1ccc(NC(=O)c2cc(S(=O)(=O)N3CCC(C)CC3)cn2C)cc1	-5.5%
Cc1cc(C)cc(N2CCn3c2nc2c3c(=O)n(C/C=C/c3ccccc3)c(=O)n2C)c1	-6.1%
COc1ccc(NC(=O)c2c(NC(=O)c3ccc(Br)cc3)sc3c2CCCC3)cc1	-22.6%
COc1ccc(NC(=O)Nc2nnc(N3CCCC3)s2)cc1	-5.6%
CCC1CCCCN1S(=O)(=O)c1cc(C(=O)Nc2ccc(C)c(F)c2)ccc1F (centres undefined)	17.6%
COCc1cc(C)n(CC(=O)Nc2cccc(C(C)=O)c2)c(=O)c1C#N	0.6%
Cc1ccccc1Cn1nnc2c(=O)[nH]c(C3CCN(C(=O)c4ccccc4Cl)CC3)nc21	-12.0%
COc1ccc(CCNc2oc(/C=C/c3ccc(OC)c(OC)c3)nc2C#N)cc1	4.9%
CCn1cc(C(=O)NCCc2ccccc2)c(=O)c2cc(S(=O)(=O)N(C)C3CCCCC3)ccc21	-3.7%
CC(=O)N1CCC(N(Cc2ccco2)C(=O)Nc2cccc(C)c2)CC1	-10.8%
COc1ccccc1CNC(=O)c1nnn(CC(=O)Nc2c(C)cccc2C)c1N	2.5%
COc1ccc(-c2cc(-c3ccc(F)cc3)nc3c2COc2ccccc2-3)cc1	-0.2%
Cc1ccc(S(=O)(=O)C(CNC(=O)C(=O)NCc2ccc(Cl)cc2)c2cccs2)cc1 (centres undefined)	6.7%
Cc1cc(C)c2oc(-c3cccc(NC(=O)c4ccc(Br)o4)c3)nc2c1	-5.7%
Cc1cc(C(=O)Nc2c(C)nn(Cc3ccc(F)cc3)c2C)no1	7.6%
COc1ccc(OC)c(/C=C/C(=O)Nc2ccc(C(=O)OCCC(C)C)cc2)c1	16.7%
O=C1CN(C(=O)c2ccc(Cl)cc2Cl)C(c2ccc(F)cc2)c2cc(F)ccc2N1 (centres undefined)	18.8%
CCOc1ccccc1-n1nnc(S(=O)(=O)c2ccc(C)cc2)c1N	5.9%
COc1ccc(N2C(=O)Cc3cc(OC)c(OC)cc3C2c2ccc(F)cc2)cc1 (centres undefined)	13.9%
CCOC(=O)c1ccc(NC(=O)c2sc3ccccc3c2Cl)cc1	-39.1%
CCOC(=O)c1c(S(=O)(=O)N2CCC(C(=O)NCc3cccc(OC)c3)CC2)c(C)n(C)c1C	-4.9%
O=C(NC1CCCCC1)c1ccc2c(c1)N(Cc1ccc(Cl)cc1)C(=O)c1ccccc1S2=O (centres undefined)	-0.5%
Cc1cc(NC(=O)c2oc3c(c2C)-c2[nH]ncc2CC3)ccc1Br	-3.0%
Cc1ccccc1C(=O)Nc1nnc(SCc2cc(=O)n3ccccc3n2)s1	0.4%
Cc1ccc(S(=O)(=O)n2nc(-c3ccc(Cl)cc3)nc2NCc2ccccc2)cc1	-5.3%
Cc1nn(CCC(=O)NC(C)C)c(=O)c2nn(-c3ccccc3)c(C)c12	-1.7%
O=C(Cn1ncc2c3ccccc3n(Cc3cccc(Cl)c3)c2c1=O)NCc1cccs1	-6.1%

Additional entries follow.
SMILES	miR-21 FLuc
Cc1cc2n(n1)CCC(=O)N2Cc1ccc(C(=O)Nc2cccc(C(F)(F)F)c2)cc1	13.5%
Cc1cc2nc(N(Cc3cccnc3)C(=O)c3ccc(Cl)s3)sc2cc1C	-7.2%
CCOC(=O)c1cccc(NC(=O)c2sc3nc[nH]c(=O)c3c2C)c1	-35.1%
Cc1ccc(NC(=O)C2CC(=O)N(c3ccc(OC(C)C)cc3)C2)cc1 (centres undefined)	5.0%
O=C1CCCc2cc(S(=O)(=O)NCC3CCC(C(=O)NCc4ccc(F)cc4)CC3)ccc2N1 (centres undefined)	2.6%
COc1cc2c(cc1OC)C(COc1cc(C)cc(C)c1)N(C(=O)c1ccc(S(=O)(=O)N3CCCC3)cc1)CC2 (centres undefined)	1.1%
Cc1ccc(NC(=O)C2CCN(S(=O)(=O)c3cccc4nsnc34)CC2)cc1F	0.1%
Cc1cc(C)cc(OC(C)C(=O)Nc2nonc2-c2ccc(Br)cc2)c1 (centres undefined)	0.4%
CCOc1ccc(CCNC(=O)CCN2N=C(c3ccc(OC)cc3)CCC2=O)cc1OCC	0.7%
Cc1ccc(S(=O)(=O)NCCc2cn3ccsc3n2)c(C)c1	-0.3%
CCOc1ccc(CCNc2ncnc3onc(-c4ccc(Cl)cc4)c23)cc1	11.2%
Cc1cc(C)cc(OCCSc2nc3ccc(NC(=O)c4cccs4)cc3s2)c1	5.0%
Cc1ccc2nc3sc(C(=O)NCCCN(C)c4ccccc4)cc3cc2c1	-18.1%
O=C(CSc1ccc2nnc(CCNS(=O)(=O)c3ccccc3)n2n1)Nc1ccccc1C(F)(F)F	-1.1%
COc1ccc(-c2cc3nc(C)c(CCC(=O)NCc4ccccc4Cl)c(C)n3n2)c(OC)c1	4.3%
O=S(=O)(Nc1ccc2nc(-c3ccc(F)cc3)oc2c1)c1ccccc1	-23.1%
COC(=O)c1c(NC(=O)/C=C/c2ccc(OC)cc2)sc2c1CCC2	0.0%
O=C(CSc1ccc(-c2cccs2)nn1)Nc1ccccc1C(F)(F)F	-14.5%
O=C(NCCc1ccc(Cl)cc1)c1nnc(Cc2ccc(F)cc2)o1	3.0%
O=S(=O)(c1ccc2nc(Nc3ccc(F)cc3)ccc2c1)N1CCCC1	0.3%
COc1ccc(-c2cc3nc(C)c(CCC(=O)N4CCN(c5ccc(F)cc5)CC4)c(C)n3n2)c(OC)c1	29.7%
Cc1ccc(CNC(=O)CCSCc2cnn(-c3ccccc3)c2-n2cccc2)cc1	-5.4%
CCCn1c(=O)c2sccc2n2c(CCCC(=O)Nc3ccccc3OCC)nnc12	-0.7%
Cc1noc(C)c1S(=O)(=O)NCCc1csc2nc(-c3ccc(F)cc3)nn12	8.0%
COc1ccc(N2CCN(C(=O)c3nn(C)c4c3CSc3ccccc3-4)CC2)cc1	-6.5%
Cc1cc(F)ccc1NC(=O)c1csc2c1CCC(C)C2 (centres undefined)	-47.8%
FC(F)(F)c1cccc(N2CCN(Cc3nnc(-c4ccccc4)o3)CC2)c1	-0.5%
Cc1ccc(S(=O)(=O)c2cn(CC(=O)Nc3ccc4c(c3)OCO4)c3ccc(F)cc3c2=O)cc1	-0.6%
O=C(CC1N=C2c3ccccc3N=C(SCC(=O)Nc3ccccc3F)N2C1=O)NCc1cccs1 (centres undefined)	-23.0%
Cc1cc(Cl)ccc1NC(=O)CS(=O)(=O)c1cccc2nsnc12	-2.9%
Cc1ccc(S(=O)(=O)N(C)Cc2nc(-c3ccccc3)oc2C)cc1	-7.5%
COc1ccc(OC)c(-c2csc(-c3c(N)c(C(=O)c4ccccc4)n4ccccc34)n2)c1	-0.6%
CCN(CC)C(=O)c1sc2c(c1C)c(=O)n(-c1ccccc1)c(=O)n2CC(=O)Nc1ccc(C)cc1C	4.0%
CCOc1ccc(S(=O)(=O)Nc2nc3ccccc3nc2Nc2ccc(OC)cc2)cc1	0.8%
COc1ccccc1-c1noc(CCCC(=O)NCc2ccco2)n1	-1.6%
COc1ccc(S(=O)(=O)NCC(c2ccco2)S(=O)(=O)c2ccc(C)cc2)cc1C (centres undefined)	-0.3%

21 neighbouring compounds already listed, quoted:
SMILES	miR-21 FLuc
O=C(CSc1ccc2nnc(CCNS(=O)(=O)c3ccccc3)n2n1)Nc1ccccc1C(F)(F)F	-1.1%
COc1ccc(-c2cc3nc(C)c(CCC(=O)NCc4ccccc4Cl)c(C)n3n2)c(OC)c1	4.3%
O=S(=O)(Nc1ccc2nc(-c3ccc(F)cc3)oc2c1)c1ccccc1	-23.1%
COC(=O)c1c(NC(=O)/C=C/c2ccc(OC)cc2)sc2c1CCC2	0.0%
O=C(CSc1ccc(-c2cccs2)nn1)Nc1ccccc1C(F)(F)F	-14.5%
O=C(NCCc1ccc(Cl)cc1)c1nnc(Cc2ccc(F)cc2)o1	3.0%
O=S(=O)(c1ccc2nc(Nc3ccc(F)cc3)ccc2c1)N1CCCC1	0.3%
COc1ccc(-c2cc3nc(C)c(CCC(=O)N4CCN(c5ccc(F)cc5)CC4)c(C)n3n2)c(OC)c1	29.7%
Cc1ccc(CNC(=O)CCSCc2cnn(-c3ccccc3)c2-n2cccc2)cc1	-5.4%
CCCn1c(=O)c2sccc2n2c(CCCC(=O)Nc3ccccc3OCC)nnc12	-0.7%
Cc1noc(C)c1S(=O)(=O)NCCc1csc2nc(-c3ccc(F)cc3)nn12	8.0%
COc1ccc(N2CCN(C(=O)c3nn(C)c4c3CSc3ccccc3-4)CC2)cc1	-6.5%
Cc1cc(F)ccc1NC(=O)c1csc2c1CCC(C)C2 (centres undefined)	-47.8%
FC(F)(F)c1cccc(N2CCN(Cc3nnc(-c4ccccc4)o3)CC2)c1	-0.5%
Cc1ccc(S(=O)(=O)c2cn(CC(=O)Nc3ccc4c(c3)OCO4)c3ccc(F)cc3c2=O)cc1	-0.6%
O=C(CC1N=C2c3ccccc3N=C(SCC(=O)Nc3ccccc3F)N2C1=O)NCc1cccs1 (centres undefined)	-23.0%
Cc1cc(Cl)ccc1NC(=O)CS(=O)(=O)c1cccc2nsnc12	-2.9%
Cc1ccc(S(=O)(=O)N(C)Cc2nc(-c3ccccc3)oc2C)cc1	-7.5%
COc1ccc(OC)c(-c2csc(-c3c(N)c(C(=O)c4ccccc4)n4ccccc34)n2)c1	-0.6%
CCN(CC)C(=O)c1sc2c(c1C)c(=O)n(-c1ccccc1)c(=O)n2CC(=O)Nc1ccc(C)cc1C	4.0%
CCOc1ccc(S(=O)(=O)Nc2nc3ccccc3nc2Nc2ccc(OC)cc2)cc1	0.8%
